CapD inh – Bacillus anthracis CapD inhibitors, primary screen, biochemical, fluorescence intensity | purified CapD enzyme, fluorescence intensity read-out; active compounds read low; some hits fall short of the stated cut | z-score (no concentration beside the values) | AID 492967, 2010 | 140,000 tested, 0.23% active;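 active = z-score under -4 in either of two replicates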;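 note: stock transfer was 100 nL into about 40 µL; score is relative to mean and spread of the plate; one replicate is shown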
AID504770 – growth inhibition of E. coli YBA685, primary screen, V. cholerae RctB inhibitors | E. coli YBA685 rctB-dependent plasmid, OD600 growth, 3 h; active compounds read low | z-score (concentration not given with the values) | 130,000 tested, 0.27% active | AID 504770, 2011;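 active = z-score under -2 on both plates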;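 note: wells of about 30 µL received 100 nL stock; score is relative to mean and SD of the test wells; the first replicate is given; strong numbers were not always called active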
* hit, by the source's call; x = not tested or not shown; & = joins results of further samples. These rows are one share of the data. The share of hits here may be higher or lower than overall.

Compound	CapD inh	AID504770
COc1ccccc1NC(=O)CSc1nnc2c(n1)-c1cccc3cccc-2c13	0	x
CN1CCc2c(C#N)c(Cl)nc(NCc3ccccc3)c2C1	x	-0.6
COc1cccc(-c2nnc(-c3ccccc3NC(=O)c3ccc(F)cc3)o2)c1	0.26	x
CC1(C)OC(c2ccccc2)CC1=O (centres undefined)	x	2.15
CC(C)(O)C#Cc1ccc(/C=N/Nc2ccccc2)cc1	-1.09	x
CCOC(=O)C1=c2s/c(=C/c3ccccc3OC)c(=O)n2C(N)=C(C(=O)OC)C1c1ccccc1OC (centres undefined)	-0.085	x
O=C(NCc1ccccc1CN1CCCC1)c1cc2cc(Cl)ccc2o1	x	-0.5
O=C(Nc1nc(-c2ccccc2)cs1)c1ccccc1	-0.085	-0.45

Random excerpt: four compounds from above
Compound	CapD inh	AID504770
O=C(NCc1ccccc1CN1CCCC1)c1cc2cc(Cl)ccc2o1	x	-0.5
COc1ccccc1NC(=O)CSc1nnc2c(n1)-c1cccc3cccc-2c13	0	x
CCOC(=O)C1=c2s/c(=C/c3ccccc3OC)c(=O)n2C(N)=C(C(=O)OC)C1c1ccccc1OC (centres undefined)	-0.085	x
CN1CCc2c(C#N)c(Cl)nc(NCc3ccccc3)c2C1	x	-0.6

The list goes on:
Compound	CapD inh	AID504770
N#Cc1ccsc1NC(=O)COC(=O)C1CC(=O)N(Cc2ccco2)C1 (centres undefined)	x	-0.1
CCOC(=O)C(CC)n1cnc2c(oc3ccccc32)c1=O (centres undefined)	0.015	-0.5
Cc1cccc(C(=O)Nc2nnc(CCOCCOCCc3nnc(NC(=O)c4cccc(C)c4)s3)s2)c1	0.165	x
CCCCN1C(=O)c2[nH]nc(-c3ccccc3O)c2C1c1cccc(O)c1 (centres undefined)	-0.16	-1
CCOc1ccc(N=C2SC(C(=O)Nc3ccc(C(=O)O)cc3)CC(=O)N2Cc2ccc3c(c2)OCO3)cc1 (centres undefined)	-0.23	x
CC1CC(C)CN(CC(=O)c2ccccc2Br)C1 (centres undefined)	x	0.2
Cn1c(COc2ccccc2O)[n+](C)c2ccccc21	0.005	-0.15
Brc1ccc(NC2=NCCC2)cc1	-0.57	-1.1
CCn1c(C(=O)O)c(CNCc2ccc(C)o2)c2ccc(OC)cc21	2.17	0.25
Cc1ccc(N=c2scc(-c3ccco3)n2/N=C/c2ccncc2)c(C)c1	x	0.35
NCc1nc(-c2ccccc2)no1	x	-0.75
O=C(NC1CC2CCCC(C1)N2CC(=O)N1CCCc2ccccc21)c1ccccc1 (centres undefined)	x	-0.4
COc1ccc(OC)c(NC(=O)c2csc(Cl)c2OC)c1	0.2	-1.75
O=C(OCCc1csc2ccccc12)c1ccc(Cl)cc1	-0.345	-0.75
O=C(NNC(=O)c1cccc(O)c1)OCc1cccc(OCc2ccccc2)c1	0.62	x
CC(C)C1Oc2cc3oc(=O)ccc3cc2C1=O (centres undefined)	34.3	0.95
CSc1ncccc1C(=O)NCc1nnc2ccccn12	x	-0.15
O=C1C2C3c4ccccc4C(c4ccccc43)C2C(=O)N1c1ccccc1 (centres undefined)	0.79	x
O=C(Cc1cccs1)N1CCOCC1	-0.93	-0.6
CCCCCOc1ccc(C=C2c3cc([N+](=O)[O-])cc([N+](=O)[O-])c3-c3c2cc([N+](=O)[O-])cc3[N+](=O)[O-])cc1	-0.395	x
Cn1nc(C(=O)NCC2CCCO2)c2c1-c1ccccc1SC2 (centres undefined)	-0.675	0.2
Cc1ncc(CSCC(=O)Nc2ccccc2F)c(CO)c1O	60.5	x
Cc1nc(C23CC4CC(CC(C4)C2)C3)co1	-0.705	-0.05
CC(=O)NC1=NC(=O)/C(=C\c2cn(C(C)=O)nc2-c2ccc(F)cc2)S1	0.16	x
Cc1ccc(CNC(=O)C2(S(=O)(=O)c3ccc(C)cc3)CC2)cc1	-0.355	0.4
CCOC(=O)c1c(CN2CCN(CC#N)CC2)oc2cc(Br)c(OC(C)=O)cc12	0.09	0.1
O=C(CN(C(=O)Cn1nnc(-c2cccs2)n1)C1CCCC1)NCc1ccccc1	x	0.25
CC(N=Cc1c(O)c2ccccc2oc1=O)C(=O)O (centres undefined)	-0.285	0.7
Cc1ccc(S(=O)(=O)NC(C)C(=O)OCc2cc(=O)n3ccsc3n2)cc1 (centres undefined)	x	-0.2
Cc1cc(C)nc(NS(=O)(=O)c2ccc(Nc3nc(-c4c(C)nc5ncccn45)cs3)cc2)n1	-0.795	x
O=c1ccc(-c2ccc(S(=O)(=O)NC3CC3)o2)n[nH]1	0.75	-0.25
Cc1cc(C)nc(SCC(=O)NN=C2CCCC2)n1	0.165	1.55
COc1cc(C=C2C(=O)N(C)C(=O)N(C)C2=O)cc(Br)c1OCCOc1ccc(C)c(C)c1	0.145	x
COc1cc(/C=C2\SC(=O)N(Cc3ccc(Cl)cc3)C2=O)cc(OC)c1OC	0.47	x
Cc1ccccc1Nc1nc(N)nc(CSc2ncn[nH]2)n1	x	-0.35
CCOC(=O)c1c(NC(=O)C(C)Sc2nnc(CNC(=O)c3ccc([N+](=O)[O-])cc3)n2C)sc2c1CCC2 (centres undefined)	-0.505	x
Clc1cccc(-c2nn[nH]n2)c1Cl	0.56	x
Cc1ccc2nc(Cn3nnc(-c4ccccc4)n3)cn2c1	x	-0.75
Cc1ccc2c(c1)C(=Nc1ccccc1)c1cc3ccccc3nc1-2	0.845	x
CC(C)n1c(C(F)(F)F)nc2cc(C(=O)N3CCCCC3)ccc21	-0.17	-1.5
NC(=O)NC1NC(=O)NC1=O (centres undefined)	0.12&0.95	-0.2
O=S1(=O)C=C(Sc2nc3ccccc3o2)c2ccccc21	-0.32	x
Cc1cc(C)n(CC(O)c2ccccc2)n1 (centres undefined)	-0.165	-0.9
CC1=CC(=O)N(c2c(C)n(C)n(-c3ccccc3)c2=O)C1=O	-0.305	2.15
COc1cccc(/C(O)=C/c2nc3ccc(C(=O)Nc4cccc(C)c4)cc3[nH]c2=O)c1	0.08	1.9
CC1=C(C#N)C(/C=N/N(C)c2ncc(C(F)(F)F)cc2Cl)CC(=O)N1 (centres undefined)	0.225	x
CCN(CC)c1ccc(N=C2C(=O)Nc3ccccc32)cc1	-0.295	-0.55
Cn1cnc(-c2ccccc2NS(=O)(=O)c2ccc(Cl)cc2)n1	0.895	0.8
OC(COc1ccccc1Cl)CN1CCCC1 (centres undefined)	-0.155	-0.45
CCOC(=O)c1cc2sccc2[nH]1	0.125	-0.35
O=C(ON=C1C2CC3CC(C2)CC1C3)c1ccc(F)cc1	-0.585	x
COc1ccc(Oc2cc(C)c3ccccc3n2)cc1	0.755	0
Cc1ccc(CSc2nc3ccccc3c3nc(CCc4c(C)n[nH]c4C)nn23)cc1	5.62	2.5
O=C1c2ccccc2C(=O)N1CCCc1nc2ccccc2c(=O)n1Cc1ccco1	0.005	0.45
C=CCn1cnc2c(cnn2-c2ccc(F)cc2)c1=O	-0.24	-1.3
N#CCC(O)CNc1ncc(C(F)(F)F)cc1Cl (centres undefined)	-0.745	1.2

Compound profiles, from the list above.
Shown for CCOC(=O)c1cc2sccc2[nH]1 → CapD inh = 0.125; AID504770 = -0.35
Shown for O=C(OCCc1csc2ccccc12)c1ccc(Cl)cc1 → CapD inh = -0.345; AID504770 = -0.75

(cont.)
Compound	CapD inh	AID504770
COc1ccc(-n2cc(C(=O)NCCC3=CCCCC3)nn2)cc1	-0.18	0.1
CCC(=O)NNc1nc2c(C)c(C)ccc2s1	x	0
O=C1C(=C2NCCN2)CC/C1=C\c1ccco1	x	-0.35
Cc1cc(C(=O)CN2C(=O)c3cccc(N)c3C2=O)c(C)n1-c1cccc(S(=O)(=O)N2CCOCC2)c1	x	-0.3
COc1ccc(CNC(=O)C(C)NC(C)=O)cc1 (centres undefined)	x	0.05
O=C(Cc1cn2ccsc2n1)Nc1ccccc1Oc1ccccc1	x	0.6
Cc1c(C(=O)O)sc2ncnc(N(C)c3ccccc3)c12	-0.28	x
COC(=O)N/N=C/c1ccc(OC)c(OC)c1	x	0.3
COC(=O)CSc1nnc(SCC(=O)OC)s1	0.045	-1.3
O=C(Nc1ccccc1-c1nc2ccccc2[nH]1)C1=COCCO1	5.17	-0.4
Cc1cc(=O)n(C)c(=O)n1CCCCN1CCOCC1	-0.095	-0.4
Cc1ccc(CN2C(=O)CCNc3ccc(C(F)(F)F)cc32)cc1	0.14	-0.45
CC(=O)NCCc1ccc(OC(C)=O)cc1	-0.01	x
Cc1cc2n(n1)C(c1ccsc1)Nc1c(C)cccc1-2 (centres undefined)	0.385	-0.2
COc1cccc(CNC(=O)c2cnc(OC)cc2C(F)(F)F)c1	0.985	0.75
O=C(Cn1nc(-c2ccccc2)c2ccccc2c1=O)NCCN1CCOCC1	-0.71	0.4
CCn1c(SC)nnc1C1CCCNC1 (centres undefined)	x	-0.1
CC1=C(C(=O)Nc2ccc(Br)cn2)C(c2cccc(Oc3ccccc3)c2)C2=C(CCCC2=O)N1 (centres undefined)	11.1	x
CCc1ccccc1NC(=O)C(CC)Sc1nc2cc3c(cc2c(=O)n1Cc1ccco1)OCO3 (centres undefined)	-0.745	0.45
C=CCN1C(=O)/C(=N/N=C/c2ccc(OC)c(O)c2)c2ccccc21	x	0.25
COc1ccc(C2C3=C(CC(C)(C)CC3=O)Nc3nc(SC)[nH]c(=O)c32)cc1 (centres undefined)	2.16	x
CCC12CCCN3CCC4(C(=C(C(=O)OC)C1)Nc1ccccc14)C32 (centres undefined)	0.82	0.55
COCC1=C(C(=O)OCc2ccccc2)C2(C(=O)Nc3ccccc32)C(C(=O)OC)=C(N)O1 (centres undefined)	0.565	x
COc1cc(C(=O)Oc2cccc(Nc3ncnc4ccccc34)c2)cc(OC)c1OC	0.02	-0.7
CCOc1cc(/C=C/c2ccccc2OC)cc(=O)c2c(C)oc(C)c12	0.42	0.35
Cc1ccccc1NC1c2ccccc2C(=O)N1Cc1ccco1 (centres undefined)	-0.23	-0.15
Cn1c(=Nc2cccc(O)c2)sc2ccccc21	x	-1.7
CCOC(=O)C1CCCN(c2c(N)n(CC)c(=O)[nH]c2=O)C1 (centres undefined)	x	0.5
O=C1C2C3C=CC(C3)C2C(=O)N1NC(=O)C12CC3CC(CC(C3)C1)C2 (centres undefined)	x	1
OC1(C(F)(F)F)CC(C23CC4CC(CC(C4)C2)C3)=NN1 (centres undefined)	9.66	0.5
CS(=O)(=O)c1ccc(NC(=O)C2CCCC2)cc1	x	0.8
O=c1c(=O)n(Cc2ccc(Cl)cc2)ccn1Cc1ccccc1	30.6	-1.35
CCOc1ccc(CCNC(=O)c2cccc3c2SCCC3=O)cc1OCC	-1.35	0.05
Cc1cc(C)cc(C(=O)Nc2ccccc2N2CCOCC2)c1	x	0.2
CCCCN1C(=O)/C(=C/c2cn(-c3ccccc3)nc2-c2ccc(S(=O)(=O)N3CCOCC3)cc2)SC1=S	-0.035	x
CCSC(=O)NC12CC3CC(CC(C3)C1)C2	0.055	1.4
CC(C)N1CC(C(=O)N2CCN(Cc3ccccc3)CC2)CC1=O (centres undefined)	0.59	0.6
CCOc1ccc(NC(=O)c2ccccc2NC(=O)c2cccnc2)cc1	-0.92	-0.8
O=C1CSC(=S)N1CCc1ccccc1	0.37	-0.3
Cc1ccc(Oc2c(C)nc(C)[nH]c2=O)cc1	-0.035	-0.65
Cc1ccc(C(=O)N2CCCC2)cc1NC(=O)c1ccco1	0.115	-0.45
COC(=O)C(NC(C)=O)(Nc1ccccn1)C(F)(F)F (centres undefined)	0.745	x
CCOC(=O)N1N=C(C)CC1(O)c1cccnc1 (centres undefined)	0.67	-0.4
O=C(NCC1NCCc2ccccc21)C1CCCCC1 (centres undefined)	-0.62	-0.75
O=C(NCc1ccco1)C1COc2ccccc2O1 (centres undefined)	-0.225	x
COC(=O)c1sc(=S)n(-c2cccc(Cl)c2)c1N	-0.93	-0.85
CC1CCCN(C(=O)COC(=O)/C=C/c2ccc(C(F)(F)F)cc2)C1 (centres undefined)	x	-0.15
COc1cc(/C=C2/SC(=O)N(CNc3ccccc3C)C2=O)cc(OC)c1OC	-0.2	x
O=C(NCCc1cccc(C(F)(F)F)c1)c1cc(-c2ccccc2)nc2ccccc12	-0.64	x
Cc1ccc(S(=O)(=O)Nc2ccc3nc(-c4ccccn4)[nH]c3c2)cc1	-0.695	-0.5
CC1(C)COC(O)(C(F)(F)F)CC1=O (centres undefined)	0.37	-0.2
COc1cc(C2NC(=O)NC(C)=C2C(=O)OC2CCCCCCC2)cc(Cl)c1O (centres undefined)	-0.61	x
CC(C)c1ccccc1OCC(=O)c1ccc(O)cc1O	-1.3	-0.1
Cc1cc(=O)oc(C)c1C(=O)NCC1COc2ccccc2O1 (centres undefined)	-0.655	-0.65
c1cn(-c2ncnc3sc4c(c23)CCC4)cn1	x	-0.85
N=c1scc(-c2ccc(Cl)cc2)n1-c1ccccc1F	-0.2	-0.6

Later entries
Compound	CapD inh	AID504770
N#Cc1ccc(COC(=O)C2CCN(c3nc4ccccc4o3)CC2)cc1	x	-0.45
Cc1nn(-c2ccccc2)c2sc(C(=O)OCSc3ncccn3)cc12	x	-0.4
CC1CCCC/C1=N\NS(C)(=O)=O (centres undefined)	0.76	0.35
CCN(CC)c1ccc(NC(=O)CCNS(=O)(=O)c2ccc3c(c2)CCC(=O)N3)c(C)c1	-0.3	0
CCn1c2ccccc2c2cc(C=Nc3ccc(C)cc3O)ccc21	25.2	-0.35
CC(=O)C(/C=N/OCc1ccc([N+](=O)[O-])cc1)C(=O)Nc1nccs1 (centres undefined)	0.635	x
